H5N1 CPE: MDCK cell protection from H5N1 avian flu. AID 740, 2007. cytopathic effect, luminescence, 72 h; active compounds read high; no value below 0 was filed and about half of the inactive calls have no number; reference of the scale not given here. 0.07% of 96,000 active. inhibition, % at 50 µM; in the data active = inhibition above about 25%
An asterisk follows results filed as active; i = inactive.

structure | H5N1 CPE
O=C(C1CCC(CNc2c(N3CCCCC3)c(=O)c2=O)CC1)N1CCc2ccccc2C1 (stereo unspecified) | 0.2
COC(=O)c1ccc(N2C(=O)CC(NCc3ccccc3)C2=O)cc1 (stereo unspecified) | 0.8
COC(=O)Nc1c(C)nn(Cc2ccccc2C)c1C | i
O=C(Nc1ccc(N2CCOCC2)cc1)c1cc2ccccc2o1 | i
Cc1cc(=O)n2nc(N3CCCC3C(=O)NCc3ccccn3)sc2n1 (stereo unspecified) | 0.8
Cc1csc(NC(=O)c2ccoc2C)n1 | 0.0
CCCc1n[nH]c2c1/C(=N/O)CC(c1ccccc1)C2 (stereo unspecified) | i
CN(C)/C=C/C(=O)c1ccc(F)cc1 | 0.0

Structural class: those above with a furan ring, fused or not (2)
structure | H5N1 CPE
O=C(Nc1ccc(N2CCOCC2)cc1)c1cc2ccccc2o1 | i
Cc1csc(NC(=O)c2ccoc2C)n1 | 0.0

In another format: entries from further up
COC(=O)c1ccc(N2C(=O)CC(NCc3ccccc3)C2=O)cc1 (stereo unspecified)
  H5N1 CPE = 0.8
COC(=O)Nc1c(C)nn(Cc2ccccc2C)c1C
  H5N1 CPE = i
O=C(Nc1ccc(N2CCOCC2)cc1)c1cc2ccccc2o1
  H5N1 CPE = i
Cc1cc(=O)n2nc(N3CCCC3C(=O)NCc3ccccn3)sc2n1 (stereo unspecified)
  H5N1 CPE = 0.8

Remaining list, next part
structure | H5N1 CPE
CN(C1CCS(=O)(=O)C1)S(=O)(=O)c1ccc(C2CCCCC2)cc1 (stereo unspecified) | 0.2
CCOc1ccc(N(CC(=O)NCc2ccccc2OC)S(C)(=O)=O)cc1 | i
CC(Oc1ccc(-c2nccc(-c3ccccn3)n2)cc1)C(=O)NN (stereo unspecified) | 1.1
O=C(Nn1cnnc1)C(Sc1ccccc1)c1ccccc1 (stereo unspecified) | 0.3
CC(C)COc1ccc(C2NC(=O)NC2=O)cc1 (stereo unspecified) | i
Cn1cc(-c2nnnn2-c2cccc(C(F)(F)F)c2)c(C(F)(F)F)n1 | 0.5
CCOC(=O)N1CCC(NC(=O)c2cc(C(=O)NC3CCCC3)ccc2CO)CC1 | 0.3
c1csc(CN2CCOCC2)c1 | 0.2

Look-ups from the list.
Result for O=C(Nn1cnnc1)C(Sc1ccccc1)c1ccccc1 (stereo unspecified) in H5N1 CPE: 0.3
Result for c1csc(CN2CCOCC2)c1 in H5N1 CPE: 0.2

New compounds follow
structure | H5N1 CPE
Cc1ccc(NC(=O)CCSc2nnc(-c3ccco3)o2)cc1 | i
CCCNC(=O)COc1ccc(S(=O)(=O)Nc2ccc(C)cc2)cc1 | i
Cc1ccc(C)c(NC(=O)CN(C)S(=O)(=O)c2ccccc2)c1 | i
CCc1ccccc1NC(=O)CSc1nc(-c2ccccc2)nn1C(=O)c1cccc([N+](=O)[O-])c1 | i
COc1ccc(C2(CCN)CC(C)N(C)CC2C)cc1 (stereo unspecified) | i
COCCNC(=O)C(c1ccccc1)N(C(=O)Cn1nnc2ccccc21)c1cccnc1 (stereo unspecified) | i
Cc1oc2ncnc(N)c2c1C | i
CCOc1ccc(N2CC(C(=O)Nc3ccccc3N3CCOCC3)CC2=O)cc1 (stereo unspecified) | i

(listing goes on)
structure | H5N1 CPE
Fc1ccc2c(Cl)c(-c3nnc(-c4cccs4)o3)sc2c1 | i
Cc1onc(-c2c(Cl)cccc2Cl)c1C(=O)NCc1ccco1 | 2.1
Cc1cc(C(=O)NCCCN2CCN(C3CCCCC3)CC2)n(-c2ccccc2)n1 | 0.6
CN1C(=O)c2cccc3c(S(=O)(=O)NCc4ccco4)ccc1c23 | 0.3
CCN(CC)C(=O)CNC(=O)Cc1ccc(Cl)cc1 | 0.2
Cc1ccccc1N/N=C1\CCCNC1=O | 0.7
CCC(=O)c1c[nH]c(C(=O)NCCc2ccccn2)c1 | i
COc1cc(-c2nnc(COc3ccc4cc(Br)ccc4c3)o2)cc(OC)c1OC | i

Next part:
structure | H5N1 CPE
CC(=O)N1CCN(c2ccc([N+](=O)[O-])c(NCC3CCCO3)c2)CC1 (stereo unspecified) | 1.5
CCOc1ccc(C(=O)CN2CCN(S(=O)(=O)c3ccc(Cl)cc3)CC2)cc1 | 5.4
Nc1ccnn1Cc1cccnc1 | 1.4
O=C1CCCCC1Sc1nnc(Cc2cccs2)n1CCc1ccccc1 (stereo unspecified) | 0.5
O=C(/C=C/c1c(Cl)cccc1Cl)N1CCN(c2ncccn2)CC1 | 0.2
Cc1cc(C)nc(NC2=NCC(=O)N2c2ccc(F)c(Cl)c2)n1 | i
Cc1ccc(NC(=O)CCN2CCN(C/C=C/c3ccccc3)CC2)cc1 | i
CC(C)C(C)NC(=O)COc1ccc(-c2ccccc2)cc1 (stereo unspecified) | 0.8

(cont.)
structure | H5N1 CPE
Cn1c(-c2ccc3c(c2)OCO3)cnc1NCc1ccccc1 | i
O=C(NC(C(=O)c1ccccc1)N1CCCCC1)c1ccccc1 (stereo unspecified) | i
Cc1cnc(-c2nnc(N(C)C(=O)C3CCOC3)s2)cn1 (stereo unspecified) | i
COc1ccc(S(=O)(=O)N(CCCN2CCOCC2)Cc2cccc(OC)c2OC)cc1 | i
CN1C(=O)C(O)(C2COC(C)(C)CC2=O)c2cc(Br)ccc21 (stereo unspecified) | i
Cn1cc(C(=O)c2ccc(Cl)cc2)cc1-c1nc2ccccc2n1C | i
COc1ccc(C(OC(=O)c2ccco2)C(=O)NCc2ccc(C)cc2)cc1 (stereo unspecified) | i
O=C(CCC(=O)c1ccc(Br)cc1)Nc1cccc(C(F)(F)F)c1 | i

Next results:
structure | H5N1 CPE
Cn1c(=O)c2c(nc(Cl)n2Cc2ccc(Cl)c(Cl)c2)n(C)c1=O | 0.9
O=c1[nH]cnc2cc(Cl)ccc12 | 0.2
COCCOC(=O)c1cc(C(=O)c2cc(F)ccc2O)coc1=N | i
COc1ccccc1-c1nc(SCC(=O)O)n[nH]1 | i
Cc1cnc(NC(=O)C(C)N2C(=O)C3CC=CCC3C2=O)s1 (stereo unspecified) | i
C=CCOc1ccc(C2C(C#N)=C(N)N(Nc3ccccc3)C3=C2C(=O)CC(C)(C)C3)cc1OC (stereo unspecified) | 1.7
CCCNC(=O)c1ccc2nc(-c3ccccc3)c(-c3ccccc3)nc2c1 | 1.5
CSc1cccc(NC(=O)C2CCCN2S(=O)(=O)c2ccc(Br)s2)c1 (stereo unspecified) | 1.0

Remaining list, next part:
structure | H5N1 CPE
N#Cc1nc(-c2ccc(OCc3ccc(Cl)cc3)cc2)oc1N1CCOCC1 | 0.2
CC1CN(c2cc(=O)n(-c3cccc(Br)c3)c(=O)[nH]2)CC(C)O1 (stereo unspecified) | 0.0
COc1ccc(-c2cc(C(=O)N/N=C/c3ccc4c(c3)OCO4)c3ccccc3n2)c(OC)c1 | i
Cc1nc2cc(NC(=O)N3c4ccccc4CC3C)ccc2n1C (stereo unspecified) | 1.4
CC(c1ccccc1)N1CCn2c(nc3cc(NC(=O)c4cccs4)ccc32)C1 (stereo unspecified) | i
CCC(=O)N(Cc1ccco1)c1nc(-c2cc(OC)ccc2OC)cs1 | i
CN1CCN(CC(=O)N(Cc2c(C#N)c3ccccc3n2C)c2ccccc2)CC1 | 1.0
O=C(c1ccccc1)c1cnc(Nc2ccccc2Cl)s1 | i

Continued.
structure | H5N1 CPE
CCn1c(=O)cc(OCC(=O)Nc2cccc(C)n2)c2ccccc21 | i
O=C(N/N=C/c1cn(-c2ccccc2)nc1-c1ccccc1)c1ccco1 | 0.1
CCCCCOC(=O)Cc1c(O)c2ccccc2[nH]c1=O | i
CN1C(=S)SC(N(O)C(=O)Nc2ccccc2)C1(C)C (stereo unspecified) | 0.9
Cc1ccc(-n2c(=O)[nH]c3c(C(N)=O)nc(CC(C)C)nc32)cc1 | 1.4
Cc1oc(C(=O)O)cc1CSc1nnc(-c2ccccc2)n1C | i
CCC(=O)c1ccc(OCC(O)CN2CC(C)OC(C)C2)cc1 (stereo unspecified) | i
CCn1ncc(C2=NOC(C(=O)Nc3cnn(C45CC6CC(CC(C6)C4)C5)c3)C2)c1C (stereo unspecified) | 9.3

Additional structures:
structure | H5N1 CPE
Cc1c(N2C(=O)c3ccc4c5c(ccc(c35)C2=O)CC4)c(=O)n(-c2ccccc2)n1C | 1.6
O=C(CSc1ncn[nH]1)Nc1nc(-c2ccccc2)ns1 | 0.1
O=C(NCc1ccco1)NCC(F)(F)F | i
CC(C)OCCCN1CN(S(=O)(=O)c2cccc(Cl)c2)c2nc3ccccc3nc21 | 4.5
COC(=O)c1cc(C(=O)Nc2ccc(C)cn2)cc([N+](=O)[O-])c1 | i
CC1CCN(CC(=O)Nc2cccc([N+](=O)[O-])c2)CC1 | 0.8
COCCCNC(=O)c1cn(CC(C)C)c(=O)c2c1c1ccccc1n2C | i
CCC1(C)Cc2ccccc2-c2nc3n(c(=O)c21)CC(C(=O)O)S3 (stereo unspecified) | 0.7

Continued:
structure | H5N1 CPE
C=CCOC(=O)C1=C(C)N=C2SCCC(=O)N2C1c1ccc(OC(=O)c2ccco2)cc1 (stereo unspecified) | 0.2
CCc1ccccc1NC(=O)c1nnn(CC(=O)Nc2cccc(C)c2)c1N | i
CCN1C(=O)c2cccc3c(NC(=O)c4cccc(N5C(=O)CCC5=O)c4)ccc1c23 | 0.7
CCOC(=O)N1CCN(C(=O)c2ccc3c(=O)n(CCc4ccccc4)c(=S)[nH]c3c2)CC1 | 0.5
CCC(=O)N1CCc2cc(Br)cc(S(=O)(=O)NCCN3CCCCC3C)c21 (stereo unspecified) | 1.7
O=C(COc1ccc(S(=O)(=O)NCc2ccccc2)cc1Cl)N1CCOCC1 | 0.1
Cc1nc2c(C#N)c(C)[nH]n2c(=O)c1Cc1ccccc1 | i
CCOc1ccc2cc(C#N)c(SCC(=O)N3CCC(C)CC3)nc2c1 | 2.2

More records:
structure | H5N1 CPE
O=c1c(Cc2ccccc2O)c(O)nc2n1CCCS2 | i
CCOc1ccccc1C1NC(=O)NC(C)=C1C(=O)OC1CCCCC1 (stereo unspecified) | 0.2
Cc1ccc(C(=O)CSc2nc3ccccc3o2)cc1 | i
COc1ccc(/C(N)=N/OC(=O)CSc2ccccc2)cc1OC | i
O=C(Cc1ccccc1)CC1(O)C(=O)Nc2ccccc21 (stereo unspecified) | 0.7
CCOC(=O)c1c(CN2CCOCC2)oc2ccc(OC)cc12 | 2.3
COc1ccc(-n2c(N)c(-c3nc4ccccc4n3C)sc2=S)cc1 | i
COc1cccc(C(=O)Nc2ccc(S(=O)(=O)NCc3ccco3)cc2)c1 | i

2 entries picked at random from those above:
structure | H5N1 CPE
COc1ccc(-n2c(N)c(-c3nc4ccccc4n3C)sc2=S)cc1 | i
COc1cccc(C(=O)Nc2ccc(S(=O)(=O)NCc3ccco3)cc2)c1 | i

(list continues)
structure | H5N1 CPE
CCn1c(O)c(C(=O)CC2NCCc3ccccc32)c(=O)n(CC)c1=S (stereo unspecified) | 0.2
Cc1[nH]c(=O)[nH]c1C(=O)CCCCC(=O)OCC(=O)Nc1ccccn1 | i
COC(=O)C1CCN(S(=O)(=O)c2c(C)n(C)c(=O)n(C)c2=O)CC1 | 0.5
COC(=O)C1CN(S(=O)(=O)c2ccccc2)CCN1S(=O)(=O)c1ccccc1 (stereo unspecified) | 1.5
Cc1cc(C(=O)OC(C)C(=O)Nc2cccc(S(=O)(=O)N3CCOCC3)c2)c(C)o1 (stereo unspecified) | i
COc1ccc(NC(=O)COC(=O)c2ccc(N3CCCC3=O)cc2)cc1OC | i
Cc1cc(OCCCC(=O)N2CCCCC2)cc(C)c1Cl | 0.7
O=C(Nc1cccc(-c2cn3ccccc3n2)c1)c1cccc(Cl)c1 | i

Other entries.
structure | H5N1 CPE
COC(=O)Nc1ccc(S(=O)(=O)n2cnc3ccccc32)cc1 | i
COc1ccc(NC(=O)CCCN2C(=O)C3C4C=CC(C4)C3C2=O)c(OC)c1 (stereo unspecified) | i
CCn1c(=O)n(CC(=O)Nc2cc(OC)c(OC)c(OC)c2)c(=O)c2ccccc21 | 1.0
Cc1cc(=O)n2[nH]c(N3C(=O)CCC3=O)nc2n1 | i
CC(=O)N(c1ccc(C)cc1)C1C=CS(=O)(=O)C1 (stereo unspecified) | 0.5
CN1C(=O)N(C)C2(c3ccccc3)Nn3c(s/c(=C/c4ccco4)c3=O)=NC12c1ccccc1 (stereo unspecified) | 3.2
COc1ccc(-c2nc(SCC(=O)N3CCOCC3)n[nH]2)cc1 | 1.3
CCSc1nnc(NC(=O)c2cccnc2)s1 | 0.3

The list goes on.
structure | H5N1 CPE
Cc1nnc(NC(=O)C2CCCN(S(=O)(=O)c3ccccc3C(F)(F)F)C2)s1 (stereo unspecified) | 0.9
Cc1nnc(C)c2c(C)n(-c3ccc(Br)cc3)c(C)c12 | 1.6
Cc1cc(C)n(-c2nc3ccccc3c(=O)n2OCC(=O)N(C)C)n1 | 1.8
Cc1cc(C(=O)CSc2nc3ccccc3o2)c(C)n1CC1CCCO1 (stereo unspecified) | 0.8
COCCNC(=O)C(c1ccccc1)N(Cc1cccs1)C(=O)Cn1nnc2ccccc21 (stereo unspecified) | 1.1
O=C(Nc1ccc(OCC(F)(F)C(F)F)c(C(F)(F)F)c1)c1ccccc1O | 8.7
CCc1nnc(NC(=O)CSc2nnc(COc3ccc(C)cc3)n2-c2ccccc2)s1 | i
CSCC[C@H](NC(=O)Nc1ccc(C)cc1C)C(=O)O | 0.1

Carrying on:
structure | H5N1 CPE
COc1cccc(/C=N/Nc2ccc(S(=O)(=O)O)cc2)c1O | i
CN(CC(=O)N1CCCCCC1)S(=O)(=O)c1ccc(Br)s1 | 1.4
CCOC(=O)c1cccc(NC(=O)CSc2nnc(-c3cccnc3)n2C)c1 | 0.6
CSc1nc(-c2ccco2)cc(-c2ccccc2)c1C#N | i
CCCNC(=O)CC1Sc2ccccc2NC1=O (stereo unspecified) | 0.5
CCN1CCN(CC(=O)c2c(C)n(Cc3ccccc3)c3ccc(OC)cc23)CC1 | i
CCS(=O)c1ccccc1C(=O)O (stereo unspecified) | 0.4

From PubChem

These rows are one share of the data (hit frequency here may not be typical).
